Screens (PubChem BioAssay)
Rango-impB inh: inhibitors of Rango-importin beta complex formation; Rango CFP/YFP FRET sensor + importin beta, 45 min; Potency, µM (top dose mostly 92.2 µM), for inactives: top-dose inhibition of complex formation; 340,000 compounds, 0.031% hits; active = rising FRET ratio curve, often small or poorly fitted; inconclusive = mostly compound fluorescence or quenching in the first reads; inactive = flat curves in all reads;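 further: potency means the concentration at half of the fitted maximal effect; 0% = DMSO wells and 100% = buffer wells lacking importin beta; nearly all actives have a fitted effect of over 15% in size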
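FRET biosensor Rango (snurportin 1 IBB between N-terminal EYFP and C-terminal Cerulean), 50 nM in PBS/1 mM DTT/0.02% Tween-20/0.1% BSA, preincubated 5 min RT with compound; 0.125 microM importin beta added, 45 min RT, CFP/YFP FRET ratio read.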
miR-21 FLuc: miR-21 reporter, rising signal; HeLa miR-21 FLuc reporter, luciferase, 48 h; Potency, µM (highest dose often 38.3 µM), for inactives: at the top dose reporter change, positive = more light; 340,000 tested, under 10 active; active = well fitted rising curve with a large enough effect; inconclusive = small, poorly fitted or top-dose-only effect; inactive = no such curve, though single readings can be large or run the other way;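 further: % of control where 0% means no effect; miR-21 action dims this reporter so a rising signal means less miR-21 action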
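Compounds were titrated across several concentrations (up to approximately 40 uM) and incubated 48 hours with HeLa miR-21-FLuc reporter cells (miR-21 target sequence downstream of FLuc, endogenous miR-21). Readout was firefly luciferase luminescence after lytic detection reagent.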
Rango dissoc inh: prevents RanGTP from dissociating the Rango-importin beta complex. O95149+P62826. 340,000 compounds, 0.071% hits. AID 540253. Potency, µM (titrated, usually from 46.1 µM), for the others: top-dose activity change, negative = inhibition. Biochemical FRET Rango-importin beta, RanGTP-induced dissociation; active means falling FRET ratio curve, often poorly fitted, with flat reads before Ran was added; inconclusive means other falling curves, or compound fluorescence or quenching; inactive means flat or rising ratio curve;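 further: potency means the concentration at half of the fitted maximal effect; % of control where 0% means no effect; nearly all actives have a fitted effect of over 45% in size; -100% = wells without RanGTP and RCC1; the record marks most hits as doubtful in a second field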
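Quantitative HTS using a FRET biosensor: 0.1 uM Rango, 0.25 uM importin beta, 0.6 uM Ran, 2 mM GTP, 0.2 uM RCC1 final, PBS with DTT, Tween-20 and BSA. Post-read taken 45 min after Ran addition.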
GLA inh pH 4.5: blocks human alpha-galactosidase A at pH 4.5. purified enzyme, 4-MU-alpha-Gal fluorescence, pH 4.5. AID 1467. 230,000 tested, under 10 active. P06280. activity change, negative = inhibition, % at 105 µM; inconclusive = small, poorly fitted or top-dose-only inhibition, or a rising curve; inactive = flat fitted curve, though single readings scatter; no compound was filed as active;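 further: 0% = full activity with enzyme and -100% = basal without enzyme; dose as in the result columns while the protocol names 77 µM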
Target sequence (P06280 whole entry, looked up): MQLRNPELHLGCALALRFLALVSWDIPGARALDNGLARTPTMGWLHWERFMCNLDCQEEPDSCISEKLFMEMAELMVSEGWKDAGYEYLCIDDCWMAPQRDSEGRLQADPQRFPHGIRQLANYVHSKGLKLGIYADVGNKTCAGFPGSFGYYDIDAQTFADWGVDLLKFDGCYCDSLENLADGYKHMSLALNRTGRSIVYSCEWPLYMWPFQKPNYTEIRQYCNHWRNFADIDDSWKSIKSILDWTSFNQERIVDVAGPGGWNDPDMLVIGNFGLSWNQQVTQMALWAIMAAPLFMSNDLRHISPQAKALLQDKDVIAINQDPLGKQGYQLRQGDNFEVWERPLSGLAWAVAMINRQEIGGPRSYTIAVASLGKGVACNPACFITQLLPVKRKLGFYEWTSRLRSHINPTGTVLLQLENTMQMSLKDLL
The depositor's hits bear a star; ? = inconclusive; . = not tested or not shown. Only part of the results is shown; rates above refer to the full screens.

cpd	Molecule	Rango-impB inh	miR-21 FLuc	Rango dissoc inh	GLA inh pH 4.5
1	COc1ccc(NC(=O)CCNS(=O)(=O)c2ccc(Br)s2)cc1	-3.5%	-4%	-19%	-12
2	Cc1ccc(C)n1NC(=O)c1ccccc1[N+](=O)[O-]	-1.0%	0%	-4%	5
3	Cn1c(N)c(C(=O)COC(=O)C2CCCCC2)c(=O)n(C)c1=O	2.8%	-2%	-7%	6
4	CCOc1cccc(-c2nnc3sc(C4CCCCC4)nn23)c1	4.7%	10%	-12%	6
5	Cc1cccc(C)c1NC(=O)CN(C)C(=O)c1ccc(-n2cncn2)c([N+](=O)[O-])c1	0.1%	.	35%	.
6	Cc1c(C2C(C#N)=C(N)N(c3ccccc3C#N)C3=C2C(=O)CCC3)cnn1C (stereo unspecified)	3.6%	-2%	0%	4
7	COC(=O)c1c(NC(=O)CC2SCC(C(=O)OC)NC2=O)sc2c1CCCC2 (stereo unspecified)	-3.0%	2%	18%	-4
8	C#CCSc1nnc(-c2ccc(C)cc2)o1	0.2%	-47%	-10%	-1
9	COc1cc(C(=O)c2ccccc2)c([N+](=O)[O-])cc1OC	1.0%	5%	2%	-7
10	CCOc1cccc2cc(C(=O)Nc3nccs3)c(=O)oc12	4.1%	-1%	2%	-12
11	COc1ccc(S(=O)(=O)N/N=C(/C)c2ccncc2)cc1	0.7%	-2%	2%	.
12	COc1cc(/C=c2\sc3nc(=O)c(-c4ccccc4)nn3c2=O)ccc1OCCC(C)C	-0.2%	-2%	-3%	4
13	COc1ccc(OC)c(-c2nc3c(C)n[nH]c(=O)c3[nH]2)c1	?	1%	-5%	8
14	CCOC(=O)N1CCN(C(=O)CNC(=O)Cn2cnc3ccccc3c2=O)CC1	5.8%	-2%	-3%	-6
15	CN(C)c1nc(=Nc2cccc(Cl)c2)ss1	5.8%	-31%	0%	1
16	O=C(O)CN=C1NC2(CCCCC2)Cc2ccccc21	-5.1%	-3%	-7%	3
17	Cc1cc(C(=O)NCC(=O)OCC(=O)NCCc2ccccc2)ccc1[N+](=O)[O-]	4.6%	-4%	11%	5
18	COCCSc1nnc(NC(=O)CSCc2ccccc2)s1	4.9%	-12%	-1%	1
19	CCc1ccccc1NS(=O)(=O)c1cc(C)ccc1OC	1.2%	0%	-1%	-1
20	CCn1ncc(CNC(=O)C2(C)CC2(Br)Br)c1C (stereo unspecified)	1.4%	-5%	3%	2
21	CC(C)(O)C(=O)NNC(=S)Nc1cccc(C(F)(F)F)c1	?	-3%	2%	5
22	Cc1cc(NC(=O)CSc2nnc(-c3ccccc3)n2Cc2ccco2)no1	-0.5%	-1%	32%	-29
23	N#CCCN(C(=O)COC(=O)C1CCN(S(=O)(=O)c2cccs2)CC1)c1ccccc1	-0.2%	-4%	-11%	-2
24	CC1=NN(c2nc(-c3ccccc3)cs2)C(=O)C1N=Nc1ccccc1 (stereo unspecified)	0.4%	1%	5%	-2
25	CCOc1ccc(N2C(=O)Nc3ccc(Br)cc3C2(O)C(=O)NC(C)C)cc1 (stereo unspecified)	3.4%	-1%	-1%	.
26	COc1ccccc1NC(=S)N=Nc1c(O)[nH]c2ccc(Br)cc12	3.8%	-1%	25%	-2
27	Cc1nnc(-c2ccccc2)nc1N(C)C	-0.1%	-15%	-1%	8
28	O=C(COc1ncnc2ccccc12)Nc1ccc(Cl)c(S(=O)(=O)N2CCOCC2)c1	?	-2%	-13%	-3
29	CC(C)CCn1c(SCC(=O)OCn2nnc3ccccc3c2=O)nc2ccccc2c1=O	0.8%	-7%	-2%	-4
30	COc1cccc(-c2nnc(NC(=O)Cc3cccs3)s2)c1	-2.0%	-24%	8%	-6
31	CC(C)OP(=O)(OC(C)C)C(Nc1ccc([N+](=O)[O-])cc1)c1cccc([N+](=O)[O-])c1 (stereo unspecified)	-0.5%	8%	7%	-20
32	CCCCCC(=O)N/N=C(\C)c1ccc(N2CCCCC2)cc1	-1.1%	-48%	-18%	10
33	O=C(c1ccco1)N1CCN(C(=O)c2cc(-c3ccccn3)nc3ccc(Cl)cc23)CC1	-0.5%	-1%	-15%	-7
34	Cc1ccc(-n2nnc3c(=O)oc4ccccc4c32)cc1	1.1%	-1%	-1%	2
35	COc1cc(C(=O)Nc2nc3ccc(S(=O)(=O)N4CCOCC4)cc3s2)cc(OC)c1OC	-2.2%	2%	-10%	-10
36	Cc1ccccc1CN1CCN(CC2CC3C=CC2C3)CC1 (stereo unspecified)	0.1%	-5%	1%	-1
37	CCCCNC(=O)c1cc(C)no1	0.4%	0%	3%	0
38	O=C(Cn1[nH]c(=O)c2ccccc2c1=O)OCC(=O)c1ccc(Br)cc1	-2.0%	.	3%	.
39	CCOc1nc(-c2ccccc2Cl)ccc1C#N	3.3%	-15%	35%	-7
40	O=C(NC1CCCCC1)C(c1ccccc1)N(C(=O)c1csnn1)C1CC1 (stereo unspecified)	-1.0%	0%	16%	.
41	Cc1cc(C)n2nc(CCc3ccccc3)nc2n1	4.6%	-24%	11%	-4
42	CN(Cc1cnccn1)C(=O)CC1C(=O)NCCN1Cc1cccc(F)c1 (stereo unspecified)	0.9%	3%	-1%	.
43	Cc1ccccc1S(=O)(=O)NNC(=O)C(=O)NNc1ccccn1	0.9%	5%	10%	-2
44	Cc1onc(-c2ccccc2)c1C(=O)N1CCN(c2ncccn2)CC1	0.6%	-1%	9%	-8
45	O=C(COC(=O)CC12CC3CC(CC(C3)C1)C2)Nc1ncc(Cl)cc1Cl	?	-5%	-19%	12
46	CCOC(=O)CNC(=O)CSc1nnc(-c2c[nH]c3ccccc23)n1CC	-4.6%	7%	-1%	4
47	CC1(C)CC(=O)C2=C(C1)Oc1nc3ccccc3cc1C2C(C#N)C#N (stereo unspecified)	0.5%	0%	-17%	8
48	O=C(CSc1nc2c(c(=O)n1-c1ccc(Br)cc1)SCC2)Nc1nccs1	0.7%	1%	14%	-8
49	COc1ccc(NC(=O)N(C)C[C@H]2Oc3c(NC(=O)C4CC4)cccc3C(=O)N([C@H](C)CO)C[C@@H]2C)cc1	3.6%	.	5%	.
50	CCOC(=O)CC1C(=O)NCCN1C(=O)c1ccc(Cl)c(Cl)c1 (stereo unspecified)	-3.5%	-2%	5%	.
51	COc1cc(C=O)ccc1Oc1ccc(S(=O)(=O)N2CCOCC2)cc1[N+](=O)[O-]	-4.7%	.	9%	.
52	COc1ccc(S(=O)(=O)N2CCCC2)cc1C(=O)O	-2.5%	3%	-10%	.
53	O=[N+]([O-])c1ccc2nc(NCCCO)nc(-c3ccccc3)c2c1	?	6%	?	7
54	CCOC(=O)C1CCCN(C2CCN(Cc3nc(-c4ccccc4)no3)CC2)C1 (stereo unspecified)	-2.6%	-4%	18%	0
55	CC(C)c1ccc(CNC(=O)C(=O)Nc2nccs2)cc1	0.9%	0%	-3%	5
56	NC(=O)c1nnn(-c2ccc([N+](=O)[O-])cc2)c1-c1ccccc1	-2.3%	-6%	20%	-23

Next results:
cpd	Molecule	Rango-impB inh	miR-21 FLuc	Rango dissoc inh	GLA inh pH 4.5
57	Fc1ccc(NC(=S)Nc2ccc3nccnc3c2)cc1	?	-30%	?	7
58	COc1cccc(/C=C/C(=O)NNC(=O)CCN2CCN(Cc3ccccc3)CC2)c1	-0.8%	6%	9%	1
59	COc1ccc(N2CCN(CCCNC(=O)CC3Oc4ccc(C)cc4NC3=O)CC2)cc1 (stereo unspecified)	0.8%	-1%	2%	0
60	Cc1ccc(C(=O)N/N=C\c2cc(Br)c(Br)o2)cn1	1.9%	10%	10%	-3
61	CCOC(=O)c1ccc(Nc2ncnc3nc[nH]c23)cc1	-3.7%	-38%	10%	0
62	Cc1ccc(C(C)NC(=O)C2CCCC2)c(C)c1 (stereo unspecified)	-3.5%	-2%	5%	.
63	CCOC(=O)c1cc(C)n(-c2ccccc2)c1C	0.4%	-34%	31%	-6
64	Cc1ccc(NC(=O)Nn2cnnc2)c(C)c1	-3.9%	1%	-9%	.
65	Cc1ccn2c(C(=O)NN=C3CCN(C)CC3)c(C)nc2c1	0.0%	-3%	3%	9
66	CCOC(=O)N1CCC(NC(=O)CCN2C(=O)C3C4C=CC(C4)C3C2=O)CC1 (stereo unspecified)	-2.0%	-5%	14%	-8
67	CC1CCCCN1C(=O)COC(=O)c1ccc(=O)n(Cc2ccccc2)n1 (stereo unspecified)	0.4%	.	-3%	.
68	CN1C(C)(C)CC(=NO)CC1(C)C	10%	.	10%	.
69	NC(=S)Nc1ccc(Cl)cc1Cl	-0.5%	3%	-5%	-4
70	O=C(Nc1nc2ccc(F)cc2s1)Oc1ccccc1	0.4%	-14%	-13%	.
71	O=C(N/N=C/c1cc2c(cc1[N+](=O)[O-])OCO2)c1cccnc1	-1.2%	-1%	-7%	0
72	CC(C)(C)NC(=O)NC(=O)COC(=O)CNC(=O)c1cc(Cl)cc([N+](=O)[O-])c1	-1.6%	0%	17%	1

3 entries drawn at random from the list so far:
cpd	Molecule	Rango-impB inh	miR-21 FLuc	Rango dissoc inh	GLA inh pH 4.5
68	CN1C(C)(C)CC(=NO)CC1(C)C	10%	.	10%	.
65	Cc1ccn2c(C(=O)NN=C3CCN(C)CC3)c(C)nc2c1	0.0%	-3%	3%	9
69	NC(=S)Nc1ccc(Cl)cc1Cl	-0.5%	3%	-5%	-4

Other entries:
cpd	Molecule	Rango-impB inh	miR-21 FLuc	Rango dissoc inh	GLA inh pH 4.5
73	c1ccc(CC2CCN(C3=Nc4cccc5cccc3c45)CC2)cc1	?	-7%	?	-17
74	O=C(Cc1ccc(-c2ccccc2)cc1)NNC(=S)NCc1ccco1	-0.5%	8%	-6%	9
75	O=C(NCCCNC(=O)c1ccc(-c2cc(Cl)ccc2Cl)o1)c1cnccn1	-0.1%	-10%	2%	.
76	COc1ccc2c(c1)cc(C(=O)N/N=C/c1c(O)c(C(=O)O)cc3ccccc13)n2C	?	4%	?	.
77	O=C(CCN1CCCCO1)N1CCCC(Nc2ccc(F)c(F)c2)C1 (stereo unspecified)	-2.0%	2%	?	.
78	Cc1ccc(CNS(=O)(=O)NCc2cccs2)cc1	-1.3%	-6%	7%	0
79	Cc1ccc(C)n1-c1ccc(C(=O)N2CCOCC2)cc1	?	-1%	-18%	4
80	CCCCN(C(=O)c1cccc(S(=O)(=O)N2CCN(Cc3ccccc3)CC2)c1)c1ccccc1	5.9%	-4%	10%	.
81	O=C(Nc1cc(C(F)(F)F)ccc1Cl)c1cccnc1	-4.2%	-6%	-6%	.
82	COc1ccnc2c1c(=O)n(Cc1ccc(F)cc1)c(=O)n2C	-1.4%	-4%	.	.
83	CN(C)c1ccc(CNn2cnnc2SCc2ccccc2F)cc1	0.5%	-40%	1%	6
84	Cc1c(C(=O)Nc2ccc(OC(F)(F)F)cc2)sc2nc3n(c(=O)c12)CCC3	-1.1%	8%	-10%	4
85	Cc1ccc(NC(=O)COc2ccc(CCO)cc2-n2nc3ccccc3n2)cc1C	-3.5%	1%	-16%	3
86	C[C@H]1CN([C@@H](C)CO)C(=O)c2cc(NC(=O)C3CCCCC3)ccc2O[C@H]1CN(C)CC1CCCCC1	-3.9%	.	7%	.
87	O=C(Cn1nc(-c2ccccc2)ccc1=O)Nc1ccc(NC(=O)c2ccccn2)cc1	-1.2%	0%	-19%	0
88	CCN(CC(=O)Nc1ccccc1C(F)(F)F)C(=O)CN1C(=O)NC(C)(c2ccccc2)C1=O (stereo unspecified)	-2.2%	.	1%	.
89	COc1ccc(C(=O)n2c(C)c(CCO)c(=O)n2C)cc1	2.1%	-21%	-6%	3

Look-ups from the entries so far:
no. 86 | Rango-impB inh: -3.9%
no. 88 | Rango dissoc inh: 1%
no. 85 | miR-21 FLuc: 1%
